# eIF4H FP inh = inhibitors of RNA binding by human eIF4H | Q15056 | eIF4H fluorescence polarization binding assay | inhibition, % at 35 µM | actives 0.94% (n = 290,000) | AID 2012;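 active = 50% or more with normal probe brightness, or confirmed in later tests; inconclusive = above 50% with abnormal brightness, or retests that disagree; inactive = below 50% or failed in later tests; about a fifth of its hits are not listed in these tables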;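 note: calls also rest on retests at 20 µM and on dose response follow-up; 0% = protein and probe with vehicle and 100% = probe without protein; strong numbers were not always called active; many hits fall short of the cut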
# MT1-MMP act inh = blocks activation of human MT1-MMP. GFP/RFP ratio change, % at 20 µM. P50281. HT1080 RFP-PRO-GFP cells, GFP/RFP ratio fluorescence, overnight; percent of plate control window, DMSO zero. AID 651647. actives 0.061% (n = 360,000);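 active = GFP/RFP ratio change of at least 30% with cell ATP level not reduced by more than half and red fluorescence within 50% of control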; note: strong numbers were not always called active
#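 Material: RFP-PRO-GFP reporter HT1080 cells. Dosing: single-point 20 µM compound, 1% DMSO. Controls: DMSO and RFP-L50D-GFP cell wells. Timing: cells overnight before dosing, compound overnight, 37 °C, 5% CO2. Measure: GFP/RFP fluorescence ratio.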
# CSC inhib = cancer stem cell inhibition; actives 1.1% (n = 300,000); cancer stem cell-like cells viability, luminescence; inhibition, % at 7.5 µM;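 active = mean at 75% or more and at least half the replicates too; inconclusive = mean and replicates disagree; tested in HMLE shEcad cells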;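 note: 0% = median of negative and 100% = median of positive control wells; the first replicate is given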
# Rce1 inhib = blocks yeast Ras-converting enzyme; actives 0.27% (n = 290,000); calls only; AID 2563; yeast membranes, quenched prenylated peptide cleavage fluorescence; Q03530;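 active = fall in fluorescence gain of 50% or more versus controls, with final raw signal at or below 3038400; inconclusive = same 50% fall but final raw signal above 3038400; inactive = fall in fluorescence gain under 50%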;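 note: plate controls were neutral control wells for no effect and wells lacking membranes for full effect; tested at 10 µM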
# Target sequence (Q03530 whole entry, looked up): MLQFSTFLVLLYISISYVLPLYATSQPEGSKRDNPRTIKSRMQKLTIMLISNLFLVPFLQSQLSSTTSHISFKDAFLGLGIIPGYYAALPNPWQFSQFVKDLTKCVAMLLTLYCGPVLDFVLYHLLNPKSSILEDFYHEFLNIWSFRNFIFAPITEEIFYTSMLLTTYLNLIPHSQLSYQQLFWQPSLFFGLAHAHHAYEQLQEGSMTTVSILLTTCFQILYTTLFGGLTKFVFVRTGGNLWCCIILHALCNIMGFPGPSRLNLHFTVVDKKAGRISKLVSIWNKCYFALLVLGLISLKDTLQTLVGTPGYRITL
# HIV Env fusion = HIV envelope-mediated fusion inhibition; AID 651610; actives 1.1% (n = 360,000); HeLa-JRFL Env/CEM21 cell fusion, luciferase; inhibition, % at 12.3 µM;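 active = mean replicate inhibition score of at least 50 and every replicate individually at or above 50; inconclusive = only one of the two criteria met; inactive = mean below 50 and not all replicates reaching 50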;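 note: 0% = plate neutral controls and 100% = maraviroc near 300 nM; one replicate is shown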
# PABP FP inh = blocks human PABP binding to poly(A) RNA | P11940 | fluorescence polarization | inhibition, % at 35 µM | actives 1% (n = 290,000) | AID 2014;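 active = 50% or more with normal probe brightness, or confirmed in later tests; inconclusive = above 50% with abnormal brightness, or retests that disagree; inactive = below 50% or failed in later tests; about a fifth of its hits are not listed in these tables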;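 note: calls also rest on retests at 20 µM and on dose response follow-up; controls were probe without protein and protein plus probe with vehicle; some compounds called inactive have numbers as strong as hits; many hits fall short of the cut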
# Target sequence (P11940 whole entry, looked up): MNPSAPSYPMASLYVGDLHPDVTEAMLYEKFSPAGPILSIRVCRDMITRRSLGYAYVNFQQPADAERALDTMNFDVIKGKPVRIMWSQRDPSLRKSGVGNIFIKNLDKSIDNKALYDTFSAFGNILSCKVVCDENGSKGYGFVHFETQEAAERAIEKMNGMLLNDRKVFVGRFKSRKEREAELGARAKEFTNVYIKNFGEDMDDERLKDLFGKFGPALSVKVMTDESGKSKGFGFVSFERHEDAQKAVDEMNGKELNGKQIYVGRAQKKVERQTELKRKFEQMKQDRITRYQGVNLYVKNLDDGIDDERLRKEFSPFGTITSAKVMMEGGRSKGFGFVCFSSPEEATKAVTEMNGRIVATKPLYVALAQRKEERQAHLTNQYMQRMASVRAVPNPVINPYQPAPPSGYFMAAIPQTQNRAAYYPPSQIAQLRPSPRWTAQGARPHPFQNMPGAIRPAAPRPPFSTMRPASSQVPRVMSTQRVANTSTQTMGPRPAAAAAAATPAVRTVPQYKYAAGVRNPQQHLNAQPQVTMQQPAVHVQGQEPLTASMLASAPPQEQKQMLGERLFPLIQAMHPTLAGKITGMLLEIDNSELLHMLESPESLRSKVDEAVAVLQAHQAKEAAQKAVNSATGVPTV
# Yeast UUG start = modulators of start codon recognition fidelity in yeast; S. cerevisiae UUG-firefly luciferase reporter, luminescence/redox ratio; activity score, % at 18.7 µM; actives 0.13% (n = 350,000); AID 602363;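 active = replicate mean at a twofold rise or more, about +100% in these data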;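 note: firefly luciferase made from a UUG start codon reports start codon fidelity; reporter light over untreated wells divided by growth signal over untreated wells; some hits fall short of that in this replicate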
# MT1-MMP act inh RFP = second read-out of MT1-MMP act inh, no call of its own (marks repeat the call); RFP signal change, %; measured here: RFP expression control read;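 0 = vehicle wells; hits needed this value within 50% of zero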
# * marks the source's active call; other numbers are inactive results; i = inactive; ? = inconclusive; . = no result given; & = joins results of further samples.
SMILES,eIF4H FP inh,MT1-MMP act inh,MT1-MMP act inh RFP,CSC inhib,Rce1 inhib,HIV Env fusion,PABP FP inh,Yeast UUG start
Cc1cc(C)n2cc(CSc3ccc(Br)cc3)nc2n1,10,1,-3,-10,i,-11,15,.
CCOC(=O)C1CCCN(C(=O)c2sc(-c3ccccc3)nc2C)CC1 (configuration not stated),.,-1,-1,.,.,6,.,-6
Cc1cccc(OCc2n[nH]c(=S)n2Cc2ccccc2)c1,-3,4,-5,5,i,15,-4,.
COc1ccc(NC(=O)CSc2nnnn2-c2ccc(F)cc2)cc1,-3,-3,-4,4,i,7,-5,-14
Cc1ccc(S(=O)(=O)N2CCc3cc4c(cc3C2C)OCCCO4)cc1 (configuration not stated),-7,3,4,0,i,22,2,-3
CC1(C(=O)NS(=O)(=O)c2cccc(OC(F)F)c2)CCN1C(=O)COc1ccc(Cl)cc1 (configuration not stated),.,-2,2,.,.,-19,.,-11
CC(Sc1ncccn1)C(=O)NC1(C#N)CCCCC1 (configuration not stated),.,2,2,.,.,8,.,-15
COc1ccc(Cl)cc1-c1n[nH]c(=S)n1C,-1,2,4,-4,i,.,-1,-8
COc1cc(CNc2nccn3ccnc23)cc(OC)c1,.,-3,0,.,.,20,.,-12
Cc1ccc(SC[C@H](Cc2ccccc2)N2CCN(CC(C)C)CCC2=O)cc1,0,1,-9,.,i,5,5,-17
CN(C)/C=C1\Cc2ccccc2C1=O,-2,-1,1,-18,i,8,5,-17
O=C(NCC(=O)N1CCN(Cc2ccccc2)CC1)c1ccc(Br)o1,-3,-1,3,8,i,-3,3,-7
O=C(NC1(C(F)(F)F)NC(=O)N(c2ccccc2)C1=O)c1cccs1 (configuration not stated),-9,3,5,-14,i,-294,2,.
CC(=O)N1CCc2c(sc(NC(=O)C3CCCN3S(=O)(=O)c3cccs3)c2C(N)=O)C1 (configuration not stated),.,-25,-7,.,i,18,.,-4
CCOC(=O)c1cc2c(=O)n3cccc(C)c3nc2n(Cc2ccco2)c1=NC(=O)c1ccccc1,3,-9&-3,2&1,2,i,-11,2,-9
Cc1ccc(Nc2c([N+](=O)[O-])cc(C(=O)N3CC(=O)Nc4ccccc43)cc2[N+](=O)[O-])c(C)c1,-9,-18,-25,18,i,.,-4,3
CC(OC(=O)CCCNC(=O)c1ccc(Cl)cc1)C(=O)N(C)Cc1ccccc1 (configuration not stated),-7,0,-4,8,i,-8,-14,6
COC(=O)[C@H]1C[C@@]2(O)CN(S(=O)(=O)c3ccc(C)cc3)C[C@@]2(OC(=O)Nc2c(C)noc2C)C[C@H]1C(=O)OC,.,5,7,.,.,-17,.,-2
CC1CCCCC1NC(=O)c1ccc(S(=O)(=O)N2CCCC2)cc1 (configuration not stated),-4,-1,-3,10,i,.,9,-2
CC1=CC2=NC(=O)/C(=C\c3cc(C)n(-c4cccc(Cl)c4)c3C)C(=N)N2O1,13,-9,-2,-3,i,-1,14,-7
CCO[C@@H]1OC(C(=O)N2CCOCC2)=C[C@H](c2ccccc2)[C@H]1CCCO,-1,1,0,-10,i,-8,-7,-8
COc1ccc(OC)c(C2CC(=O)C3=C(C2)NC(=O)CC3c2ccc(O)c(OC)c2)c1 (configuration not stated),5,-3,-3,-12,i,.,-1,2
CCN(CC1CCCO1)C(=O)c1cc(COc2ccccc2SC)on1 (configuration not stated),2,1,1,-4,i,-3,8,-4
Cn1c(=O)c2c(nc(Oc3ccc4c(c3)OCO4)n2Cc2ccc(F)cc2)n(C)c1=O,1,3,-6,0,i,-1,-8,-20
COc1cccc(-c2nnc(SCC(=O)Nc3ccc(S(N)(=O)=O)cc3)n2C)c1,7,6,-2,-13,i,10,11,.
CCCCN(C=O)c1c(CC)nc2c(OCC(=O)N3CCOCC3)cccn12,.,1,7,.,.,-33,.,-6
O=C(c1ccco1)N1CCN=C1SCc1ccc(F)cc1,1,-4,5,4,i,14,3,-11
O=S(=O)(NCc1ccccc1)c1ccc(S(=O)(=O)N(Cc2ccccn2)C2CCCC2)cc1,0,-11,-13,-5,i,.,-13,-7
Cc1c(NC(=O)c2cc(-c3ccc(F)cc3)on2)c(=O)n(-c2ccccc2)n1C,-10,-1,-1,11,i,-2,4,-1
CCOc1ccccc1OCC(=O)Nc1ccc(Cl)cc1Cl,3,2,6,-12,i,-245,-3,-15
COc1cc(CNCCN(C)C)c(Br)cc1OCC(=O)NCc1ccccc1,-12,2,2,44,i,.,-5,-9
COc1ccc(CNC(=S)Nc2ccc(OC)cc2)cc1,1,5,-3,-14,i,3,-1,.
CC[C@@](C)(NS(=O)(=O)OCC(Cl)(Cl)Cl)c1ccccc1,3,-2,6,-8,i,26,-4,-3
CCC(=O)NCCc1nc2cc(NC(=O)c3ccccc3OC)ccc2n1C,-4,-1,1,-6,i,-17,-6,-24
O=C(COC(=O)c1cccc(Br)c1)Nc1cccc(S(=O)(=O)N2CCCCC2)c1,.,-1,-4,.,.,8,.,-11
NC(=O)c1cc(C(=O)Cc2ccccc2)c[nH]1,3,-2,-3,-5,i,-6,4,7
CC(C)CCNC(=O)NC(=O)COc1ncnc2sccc12,-1,-3,1,-12,i,.,4,2
COc1cc(C(=S)N2CCN(C(c3ccccc3)c3ccccc3)CC2)cc(OC)c1O,-11,-3,-12,-3,i,-3,2,-16
COC(=O)/C(=C/c1ccccc1)NC(=O)c1ccco1,-2,1,-2,-2,i,-3,-8,-20
O=C(NCCOc1ccccc1Cl)C(=O)c1c[nH]c2ccccc12,0,3,3,30,i,2,-1,.
COc1cc(OC)cc(C(=O)Nc2c(C)nn(-c3ccccc3)c2C)c1,4,2,3,-13,i,9,-5,.
CC1CCN(C(=O)c2ccc(SCc3ccccc3F)c([N+](=O)[O-])c2)CC1,1,-3,-9,32,i,.,-15,.
COc1ccccc1N1CCN(S(=O)(=O)c2ccc3c(c2)NC(=O)CS3)CC1,-9,3,-3,3,i,4,10,-3
CN(C)C(=O)C1(c2ccccc2)CCN(S(=O)(=O)c2ccccc2)CC1,-4,-1,-4,-8,i,.,-14,-11
COc1ccc(NC(=O)CN2C(=O)NC3(CCCC3)C2=O)c(OC)c1,-3,0,2,.,i,5,-10,6
COc1cc(CN2CCC(C(=O)N3CCN(c4ccccc4F)CC3)CC2)ccc1O,-4,3,-2,9,i,-11,18,-12
Cc1cccc(N(Cc2ccccc2F)S(C)(=O)=O)c1,-7,-7,3,-4,i,.,-4,.
COc1cc(C(=O)N(C)CCOc2ccccc2)ccc1OCC(=O)Nc1cccc(C(F)(F)F)c1,.,-6,-32,1,i,-1,.,-7
Cc1ccccc1-n1nc(C)c2cc(C(=O)N3CCN(S(=O)(=O)c4ccccc4)CC3)sc21,1,1,2,.,.,6,3,3
S=C(Nc1cccc(Cl)c1)Nc1cccc2cnccc12,?,3,-2,17,.,.,-1,.

# As a working copy, 12 of the compounds above:
SMILES,eIF4H FP inh,MT1-MMP act inh,MT1-MMP act inh RFP,CSC inhib,Rce1 inhib,HIV Env fusion,PABP FP inh,Yeast UUG start
COc1ccc(Cl)cc1-c1n[nH]c(=S)n1C,-1,2,4,-4,i,.,-1,-8
COc1cc(CNc2nccn3ccnc23)cc(OC)c1,.,-3,0,.,.,20,.,-12
Cc1ccc(SC[C@H](Cc2ccccc2)N2CCN(CC(C)C)CCC2=O)cc1,0,1,-9,.,i,5,5,-17
CN(C)/C=C1\Cc2ccccc2C1=O,-2,-1,1,-18,i,8,5,-17
O=C(NCC(=O)N1CCN(Cc2ccccc2)CC1)c1ccc(Br)o1,-3,-1,3,8,i,-3,3,-7
O=C(NC1(C(F)(F)F)NC(=O)N(c2ccccc2)C1=O)c1cccs1 (configuration not stated),-9,3,5,-14,i,-294,2,.
CC(=O)N1CCc2c(sc(NC(=O)C3CCCN3S(=O)(=O)c3cccs3)c2C(N)=O)C1 (configuration not stated),.,-25,-7,.,i,18,.,-4
CCOC(=O)c1cc2c(=O)n3cccc(C)c3nc2n(Cc2ccco2)c1=NC(=O)c1ccccc1,3,-9&-3,2&1,2,i,-11,2,-9
Cc1ccc(Nc2c([N+](=O)[O-])cc(C(=O)N3CC(=O)Nc4ccccc43)cc2[N+](=O)[O-])c(C)c1,-9,-18,-25,18,i,.,-4,3
CC(OC(=O)CCCNC(=O)c1ccc(Cl)cc1)C(=O)N(C)Cc1ccccc1 (configuration not stated),-7,0,-4,8,i,-8,-14,6
COC(=O)[C@H]1C[C@@]2(O)CN(S(=O)(=O)c3ccc(C)cc3)C[C@@]2(OC(=O)Nc2c(C)noc2C)C[C@H]1C(=O)OC,.,5,7,.,.,-17,.,-2
CC1CCCCC1NC(=O)c1ccc(S(=O)(=O)N2CCCC2)cc1 (configuration not stated),-4,-1,-3,10,i,.,9,-2

# Continuation:
SMILES,eIF4H FP inh,MT1-MMP act inh,MT1-MMP act inh RFP,CSC inhib,Rce1 inhib,HIV Env fusion,PABP FP inh,Yeast UUG start
O=C(COc1cccc(Cl)c1)NNC(=S)Nc1ccccc1,-4,3,3,-3,i,5,1,.
O=C(NC1CC2CCCC(C1)N2Cc1ccccc1)C1CCCCC1 (configuration not stated),-29,-3,2,-10,i,3,-1,.
CCOC(=O)C1=NN2C(O)C3(C)CC(C(=O)OCC)=NN3C(O)C2(C)C1 (configuration not stated),.,2,3,.,.,-9,.,-32
Cc1ccc2nc(-c3cccc(Br)c3)cc(C(=O)Nn3cnnc3)c2c1,-4,3,0,7,i,-26,11,.
Cc1[nH]n(-c2ccccc2)c(=O)c1/C=N/NC(=O)COc1ccccc1[N+](=O)[O-],8,4,3,13,i,4,-11,.
COc1ccccc1S(=O)(=O)Cc1ccc(C(=O)N2CCCC2)o1,-6,-3,2,-14,i,-45,14,6
Cc1ccc(-c2nc(-c3cccnc3)sc2CC(=O)Nc2ccc(C)c(Cl)c2)cc1,-18,-8,-13,22,i,26,8,.
COc1ccc(N2C(=O)c3cccc4cccc(c34)C2=O)cc1,-5,-1,0,-6,i,-4,2,-9
CCOC(=O)C1(CCC(C)C)CC(CSc2nc3ccccc3[nH]2)OC1=O (configuration not stated),-15,0,-10,-11,i,.,6,-19
CCN(CC)CCNC(=O)c1ccc(NC(=O)C2CC(=O)N(c3ccc4c(c3)OCCO4)C2)cc1 (configuration not stated),.,4,1,-11,i,.,.,-5
CC1=C(C(=O)Nc2ccccc2C(=O)NCc2ccccc2)SCCO1,-6,-1,-1,-8,i,-4,-14,-16
CCOC(=O)c1cnc(SC)nc1Sc1ccccc1,7,2,0,24,i,.,-2,.
Cc1cccc(/N=C/c2c(C)[nH]n(-c3ccccc3)c2=O)n1,-2,-3,1,-6,i,15,3,.
COc1ccc(/C=C/C(=O)Nc2c(C)nn(C)c2C)cc1COc1ccc(Cl)cc1Br,-2,3,0,-2,i,-28,8,-6
CC(c1nccs1)N(C)C(=O)CCc1nnc(-c2ccc(-c3ccccc3)cc2)o1 (configuration not stated),2,5,-4,7,i,31,-6,.
S=c1[nH]nc(COc2ccccc2)n1/N=C/c1ccco1,-2,0,1,0,i,18,40,.
CCCCC(=O)Nc1ccc(C(=O)NNC(=O)c2ccccc2Br)cc1,9,3,8,-4,i,.,2,.
Cc1ccc(S(=O)(=O)N[C@@H](C)C(=O)OCC(=O)N2c3ccccc3NC(=O)C2(C)C)cc1,.,0,6,10,.,.,.,-8
CC12c3ccccc3C(c3ccccc31)C1C(=O)N(Cc3cccnc3)C(=O)C12 (configuration not stated),-2,-1,3,-3,i,.,2,-10

# Screening results as filed in PubChem BioAssay.

# An excerpt; rates above refer to the full screens.
